Compound activity from PubChem.
Sa growth 42C: S. aureus growth inhibition at 42 and 30 °C, primary screen, LtaS inhibitor project, RN4220, two temperatures | OD600, 20 h, 42 °C; stronger effect = lower value | relative growth, % (test concentration not listed) | 170,000 compounds, 0.53% hits;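 active = growth at 42 °C up to 50% and 20 or more points under that at 30 °C, or under 10% at both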;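 also: 300 nL library stock went into each well; scaled to the means of positive and negative controls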
GIV Gai3 FP: inhibitors of GIV peptide binding to Galpha-i3, primary screen, biochemical, fluorescence polarization, FITC-GIV GBA peptide, rat Galphai3; percent of control (FP), % (no concentration beside the values); 210,000 compounds, 0.42% hits; 90 min; stronger effect = lower value; scaled: aluminum fluoride 0%, vehicle 100%;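 active = replicate mean at 85% of control or lower, very high polarization wells dropped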;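 also: wells of about 15 µL received 100 nL stock; the first replicate is given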
Target sequence (P08753 whole entry, looked up): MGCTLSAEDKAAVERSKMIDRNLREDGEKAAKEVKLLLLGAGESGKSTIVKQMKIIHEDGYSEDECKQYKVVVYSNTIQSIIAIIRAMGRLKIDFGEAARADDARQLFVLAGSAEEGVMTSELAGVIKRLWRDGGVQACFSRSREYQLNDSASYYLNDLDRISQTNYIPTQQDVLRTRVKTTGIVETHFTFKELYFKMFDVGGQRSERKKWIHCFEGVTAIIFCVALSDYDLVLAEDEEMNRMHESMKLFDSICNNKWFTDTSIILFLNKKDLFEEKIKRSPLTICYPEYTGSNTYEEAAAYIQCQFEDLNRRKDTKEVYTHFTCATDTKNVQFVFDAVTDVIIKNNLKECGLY
HCMV NEC inh: inhibitors of HCMV UL50-UL53 interaction, biochemical, HTRF | normalized percent inhibition | inhibition, % (concentration not given with the values) | 190,000 compounds, 0.15% hits | HCMV UL50-UL53 nuclear egress complex (human cytomegalovirus) | AID 1918969, 2023;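 active = both replicates at 50% or more, plus weaker picks with an unusually low signal ratio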;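 also: stock transfer was 100 nL into about 20 µL; 0% = negative control wells and 100% = wells with untagged competitor protein; inactives centre near -12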
Sa growth 42C second temp: recorded beside Sa growth 42C, whose call it bears; relative growth, %; measured here: growth at 30 °C;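 optical density after 20 h as mean of two plates; 100% = untreated growth and lower means inhibition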
An asterisk follows results filed as active; x = no result given; & = joins results of further samples. Rows are unselected; overall some 0.82% were active at least once.

# | compound | Sa growth 42C | Sa growth 42C second temp
1 | O=C(O)c1[nH]c2ccccc2c1CNC1CCCC1 | 104 | 89
2 | CCNS(=O)(=O)c1ccc(C)cc1 | 97 | 94
3 | O=C(CCn1c(=O)c2cccn2c2cccnc21)NC1CCCc2ccccc21 (stereo not drawn) | 98 | 98
4 | Cc1ccc(CSc2cn(CC(=O)N3CCCCCC3)c3ccccc23)cc1 | 115 | 114
5 | COc1ccc(-n2c(C)cc(C(=O)COC(=O)c3ccc(O)cc3O)c2C)cc1 | 102 | 94
6 | CCOc1ccc(N2CC(NC(=O)c3cccs3)CC2=O)cc1 (stereo not drawn) | 119 | 87
7 | COc1cccc(N(C)S(=O)(=O)c2ccc(C)c(C)c2)n1 | 118 | 87
8 | COc1ccc(NC(=O)Cn2ccn(-c3ccc(F)c(F)c3)c(=O)c2=O)cc1Cl | 130 | 98

# | GIV Gai3 FP | HCMV NEC inh
1 | 108 | x
2 | 99 | 0
3 | 103 | -24
4 | 105 | x
5 | x | -14
6 | 102 | x
7 | x | -13
8 | 96 | -14

Next part:
# | compound | Sa growth 42C | Sa growth 42C second temp
9 | Cc1ccc(N2CC(NC(=O)NCCCc3ccccc3)CC2=O)cc1 (stereo not drawn) | 88 | 79
10 | Cc1ccc(Cl)cc1N1CCN(C(=O)CN2C(=O)COc3ccc(S(=O)(=O)N4CCOCC4)cc32)CC1 | 109 | 82
11 | COc1cc(C(=O)Nc2ccccc2C(=O)NCc2cccnc2)cc(OC)c1OC | 88 | 84
12 | O=C1CN(C(=O)c2ccco2)C(c2ccccc2)c2cc(Br)ccc2N1 (stereo not drawn) | 91 | 98
13 | Cc1ccc(-c2nnc(SCC(=O)NC(=O)CN3CCCC3=O)o2)cc1C | 78 | 85
14 | CCOc1ccc(NC(=O)CSc2nnnn2CC(=O)O)cc1 | 95 | 95
15 | Cc1ccc2c(c1)cc1c(=O)n(Cc3cccc(Cl)c3)nc(C)n12 | 99 | 83
16 | Cc1ccc(N2CCN(C(=O)c3c(C)oc4ncn(C)c(=O)c34)CC2)c(C)c1 | 91 | 91

# | GIV Gai3 FP | HCMV NEC inh
9 | 101 | -34
10 | 106 | -16
11 | 99 | -12
12 | 101 | 3
13 | x | -24
14 | x | -4
15 | 106 | -27
16 | 104 | x

Other structures follow:
# | compound | Sa growth 42C | Sa growth 42C second temp
17 | CCCNc1nc(NCc2ccccc2OC)c2cnn(C)c2n1 | 95 | 87
18 | Cc1cccc(NC(=O)Cn2nnc(-c3nc(-c4ccncc4)no3)c2N)c1 | 129 | 85
19 | CC1CN(C(=O)C2CC2)c2cc(S(=O)(=O)Nc3ccc(S(N)(=O)=O)cc3)ccc2S1 (stereo not drawn) | x | x
20 | O=C(O)c1ccccc1CSc1ccc(C(F)(F)F)cn1 | 98 | 87
21 | O=c1cc(CSCc2n[nH]c(=O)[nH]2)c2ccccc2[nH]1 | 97 | 80
22 | COc1cccc(C(Nc2ccccn2)c2cc(C)sc2NC(=O)c2ccccc2)c1 (stereo not drawn) | x | x
23 | Cc1[nH]c(=O)c(C#N)c(C)c1CCC(=O)O | 99 | 99
24 | FC(F)Sc1ccc(N=C=S)cc1 | -0.8* | -0.5*

# | GIV Gai3 FP | HCMV NEC inh
17 | 103 | x
18 | 117 | x
19 | 102 | -14
20 | 101 | -5
21 | 104 | -7
22 | 110 | -23
23 | x | -13
24 | x | -23

(listing goes on)
# | compound | Sa growth 42C | Sa growth 42C second temp
25 | CC1CCN(c2nc3c(-c4cccc(Br)c4)nnn3c3ccccc23)CC1 | 111 | 87
26 | Cc1ccc2c(c1)C=C(C(=O)Nc1cc(C)ccc1C)C=CO2 | x | x
27 | CC(C)C1C(C#N)=C(N)Oc2n[nH]c(-c3ccccc3)c21 (stereo not drawn) | 116 | 93
28 | Cc1cccc(-n2nc(C)c(C(=O)N3CCc4ccccc43)c2-n2cccc2)c1 | 82 | 80
29 | CCn1nc(C)cc1-c1nnc(SCC(=O)c2ccc(C)cc2)o1 | 98 | 107
30 | CC1(C)CC2CC(C)(CN2C(=O)COC(=O)c2ccc(S(=O)(=O)NCc3ccco3)cc2)C1 (stereo not drawn) | 94 | 91
31 | NC(=O)Nc1ccc(C(=O)O)cc1 | 94 | 86
32 | Cn1c(=O)n(C)c2cc(NS(=O)(=O)c3ccccc3)c(Cl)cc21 | x | x

# | GIV Gai3 FP | HCMV NEC inh
25 | 107 | -28
26 | 103 | -9
27 | x | -7
28 | 104 | -2
29 | 108 | 2
30 | x | -5
31 | x | 5
32 | 105 | -28

The list continues:
# | compound | Sa growth 42C | Sa growth 42C second temp
33 | COc1ccc(NC(=O)Nc2ccc3[nH]c(=O)oc3c2)cc1OC | x | x
34 | Cn1cccc1-c1cc2n(n1)CCC(=O)N2CC(=O)Nc1ccc(F)cc1Cl | 74 | 89
35 | COc1cc(C(F)(F)F)c(-c2ncn[nH]2)cn1 | 98 | 65
36 | O=C(CSc1nc2sc3c(c2c(=O)n1Cc1ccco1)CCC3)c1cccs1 | 99 | 75
37 | CCCCN(C)C(=O)CCn1c(=S)[nH]c2c(oc3ccccc32)c1=O | x | x
38 | COC(=O)c1ccc2c(=O)[nH]c(COC(=O)CNC(=O)c3cccs3)nc2c1 | 83 | 85
39 | O=c1c2ccccc2c2ccccc2c(=O)n1CC1CCCO1 (stereo not drawn) | 93 | 93
40 | O=C(OCC(=O)c1ccc[nH]1)c1ccccc1 | 101 | 98

# | GIV Gai3 FP | HCMV NEC inh
33 | 109 | -7
34 | 110 | x
35 | 104 | 3
36 | 101 | -6
37 | 100 | 16
38 | x | -14
39 | 101 | 4
40 | x | -8

Additional compounds
# | compound | Sa growth 42C | Sa growth 42C second temp
41 | CCc1nn(CC(=O)NCc2ccc(F)cc2)c(=O)c2cc3sc(C)cc3n12 | 116 | 87
42 | CCOC(=O)c1sc2nc(C)n(CC(=O)Nc3cccc(Cl)c3)c(=O)c2c1C | 82 | 90
43 | Cc1ccc(C2c3[nH]c4ccccc4c3CCN2C(=O)Nc2ccc(C)c(C)c2)cc1 (stereo not drawn) | 86 | 94
44 | CCn1c2c(=O)[nH]c(=O)n(C)c2n2c(-c3ccc(COc4ccccc4)cc3)nnc12 | x | x
45 | Cn1nc(C(=O)NCc2ccccc2)c2c1-c1ccccc1SC2 | 121 | 88
46 | COc1cc(Cl)c(C)cc1NC(=O)Cn1ncc2c([nH]c3ccccc32)c1=O | 96 | 83
47 | COc1ccc(C2C=C(c3ccc(Br)cc3)Nc3nc(N4C(=O)CCC4=O)nn32)cc1 (stereo not drawn) | x | x
48 | Cc1c(C)n(-c2ccccc2Cl)c2ncn3nc(CSc4nc5ccccc5o4)nc3c12 | x | x

# | GIV Gai3 FP | HCMV NEC inh
41 | 106 | x
42 | 106 | -29
43 | 101 | x
44 | 102 | -30
45 | 103 | -12
46 | 98 | x
47 | 115 | -64
48 | 105 | -7

Results in HCMV NEC inh and Sa growth 42C, for three of the compounds above:
No. | Structure | HCMV NEC inh | Sa growth 42C
42 | CCOC(=O)c1sc2nc(C)n(CC(=O)Nc3cccc(Cl)c3)c(=O)c2c1C | -29 | 82
43 | Cc1ccc(C2c3[nH]c4ccccc4c3CCN2C(=O)Nc2ccc(C)c(C)c2)cc1 (stereo not drawn) | x | 86
44 | CCn1c2c(=O)[nH]c(=O)n(C)c2n2c(-c3ccc(COc4ccccc4)cc3)nnc12 | -30 | x

Later entries:
# | compound | Sa growth 42C | Sa growth 42C second temp
49 | COc1ccccc1-c1nnc(SCCNc2ncnc3sc4c(c23)CCC4)n1C | 118 | 95
50 | O=C(CSc1nnc2ccccn12)NCC(=O)Nc1ccc(F)cc1 | 114 | 96
51 | CN1CC(=O)N(CCCC(=O)OCc2c(Cl)cccc2Cl)C1=O | 71 | 63
52 | Cn1c(=O)[nH]c(=O)c2[nH]c(Br)nc21 | 88 | 85
53 | O=C(COc1ccccc1F)Nc1ccc(OCc2cc(=O)n3ccccc3n2)cc1 | 107 | 98
54 | NS(=O)(=O)c1ccc(-c2ccc(/C=C3\SC(=S)N(Cc4ccccc4)C3=O)o2)cc1 | 112 | 91
55 | CCOc1ccc(OCC)c(Nc2nc3ccccc3c3nnc(CC)n23)c1 | x | x
56 | COc1ccc(CN(C)/C(C)=C/C(=O)C(F)(F)F)c(OC)c1OC | 75 | 86

# | GIV Gai3 FP | HCMV NEC inh
49 | x | 6
50 | x | 3
51 | x | -28
52 | 105 | -22
53 | 102 | x
54 | x | -9
55 | 104 | -6
56 | x | -16

The list continues.
# | compound | Sa growth 42C | Sa growth 42C second temp
57 | Cc1c(Cl)cccc1-n1ncnc1-c1ccc(F)cc1 | 112 | 91
58 | Cc1ccc(C(CC(=O)Nc2cc(C)cc(C)c2)N2Cc3ccccc3C2=O)cc1 (stereo not drawn) | 131 | 77
59 | Cc1cc(C)c(S(=O)(=O)NCc2ccc(C(=O)NCCc3ccc(Cl)cc3)cc2)c(C)c1 | 117 | 85
60 | O=C(NCc1ccco1)c1c[nH]c2ccc(S(=O)(=O)Nc3ccc(F)cc3F)cc2c1=O | 99 | 71
61 | Cc1ccc(Cl)cc1N1CCN(Cc2nnc(-c3ccc4c(c3)OCO4)o2)CC1 | 120 | 91
62 | Cc1cccc(Cl)c1-n1sc(=O)n(CC2CC2)c1=O | 56 | 30
63 | CSc1nc2ccccc2n1CC(=O)N(C)C1CCCCC1 | 76 | 90
64 | COc1ccc(CNCCC2(Cc3ccccc3)CC(C)N(C)CC2C)cc1OC (stereo not drawn) | 104 | 85

# | GIV Gai3 FP | HCMV NEC inh
57 | 105 | -1
58 | 102 | x
59 | 105 | x
60 | 101 | -5
61 | 105 | -4
62 | 105 | -35
63 | x | -2
64 | x | -2

Further records.
# | compound | Sa growth 42C | Sa growth 42C second temp
65 | CCOc1ccccc1NC(=O)CSC1=Nc2ccccc2C2=NC(CC(=O)NC3CCCCC3)C(=O)N12 (stereo not drawn) | 96 | 81
66 | CSc1ncccc1C(=O)NCc1ccccc1C(F)(F)F | 111 | 99
67 | CS/C(=N\S(=O)(=O)c1cc(C(F)(F)F)cc(C(F)(F)F)c1)N1CCOCC1 | 95 | 94
68 | O=c1[nH]ccn(-c2cccc(Cl)c2)c1=O | 96 | 86
69 | COc1ccc(Cl)cc1C(=O)NCCS(=O)(=O)N1CCN(c2ccccc2OC)CC1 | 82 | 82
70 | CN(C(=O)C1CCCN(c2ncnc3onc(-c4ccc(F)cc4)c23)C1)c1ccccc1 (stereo not drawn) | 92 | 95
71 | CCC(NC(=O)c1ccc(C#CC2(O)CCCCC2)cc1)C(=O)O (stereo not drawn) | 101 | 100
72 | CC(=O)Oc1ccc2occ(C(=O)c3cc4ccccc4o3)c2c1 | 89 | 86

# | GIV Gai3 FP | HCMV NEC inh
65 | 100 | -16
66 | 106 | x
67 | 100 | -9
68 | 99&100 | -30&-40
69 | 103 | x
70 | 103 | -16
71 | 107 | 3
72 | x | -7

The closing seven compounds of the section before open the next one.
# | compound | Sa growth 42C | Sa growth 42C second temp
66 | CSc1ncccc1C(=O)NCc1ccccc1C(F)(F)F | 111 | 99
67 | CS/C(=N\S(=O)(=O)c1cc(C(F)(F)F)cc(C(F)(F)F)c1)N1CCOCC1 | 95 | 94
68 | O=c1[nH]ccn(-c2cccc(Cl)c2)c1=O | 96 | 86
69 | COc1ccc(Cl)cc1C(=O)NCCS(=O)(=O)N1CCN(c2ccccc2OC)CC1 | 82 | 82
70 | CN(C(=O)C1CCCN(c2ncnc3onc(-c4ccc(F)cc4)c23)C1)c1ccccc1 (stereo not drawn) | 92 | 95
71 | CCC(NC(=O)c1ccc(C#CC2(O)CCCCC2)cc1)C(=O)O (stereo not drawn) | 101 | 100
72 | CC(=O)Oc1ccc2occ(C(=O)c3cc4ccccc4o3)c2c1 | 89 | 86
73 | OCCNCc1ccc(-c2cc(Cl)ccc2Cl)o1 | x | x
74 | Cc1ccc2c(CN(Cc3cccs3)C(C)C)cc(=O)oc2c1 | 74 | 66
75 | FC(F)(F)c1cccc(-c2noc(-c3ccccc3)n2)c1 | 95 | 95
76 | CCOC(=O)CSc1nc2nc[nH]c2c(=O)[nH]1 | x | x
77 | CC(C#N)Sc1nnc(-c2nn(Cc3ccccc3)c(=O)c3ccccc23)o1 (stereo not drawn) | 91 | 69
78 | CCC(C)NC(=O)C1CCN(S(=O)(=O)c2cn(CC)cn2)CC1 (stereo not drawn) | x | x
79 | Cc1nn(CC(=O)O)c(C)c1C | 113 | 72
80 | CC(C)N1C(=O)C2C3C=CC(O3)C2C1=O (stereo not drawn) | 101 | 99

# | GIV Gai3 FP | HCMV NEC inh
66 | 106 | x
67 | 100 | -9
68 | 99&100 | -30&-40
69 | 103 | x
70 | 103 | -16
71 | 107 | 3
72 | x | -7
73 | 104 | 5
74 | 102 | x
75 | 103 | -2
76 | 97 | 4
77 | x | -28
78 | 105 | -30
79 | 97 | -1
80 | 105 | -10

Following part
# | compound | Sa growth 42C | Sa growth 42C second temp
81 | c1cc2c3c(cccc3c1)NC(c1ccncc1)N2 | 85 | 40
82 | Cc1cc(CNCc2ccc(CN3CCOCC3)cc2)c(C)n1-c1ccnn1C(C)C | 102 | 89
83 | Cc1ccccc1NC(=O)Cn1c(=O)n(C2CCCC2)c(=O)c2ccccc21 | 88 | 89
84 | Cc1cc(=O)[nH]c2nnc(SCc3ccc(Cl)cc3)n12 | 87 | 102
85 | O=C(O)c1ccc(C2SCC(=O)N2Cc2ccccc2)cc1 (stereo not drawn) | 97 | 87

# | GIV Gai3 FP | HCMV NEC inh
81 | x | -46
82 | x | 1
83 | 108 | 4
84 | 105 | x
85 | 97 | -23
